AID504770 – E. coli YBA685 growth inhibition, screen for V. cholerae RctB inhibitors; E. coli YBA685 rctB-dependent plasmid, OD600 growth, 3 h; active compounds read low; z-score (no concentration beside the values); actives 0.27% (n = 130,000); AID 504770;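 active = z-score under -2 on both plates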;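 also: wells of about 30 µL received 100 nL stock; score is relative to mean and SD of the test wells; the first replicate is given; strong numbers were not always called active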
Ba CapD inh – inhibitors of Bacillus anthracis CapD enzyme; purified CapD enzyme, fluorescence intensity read-out; active compounds read low; some hits fall short of the stated cut; z-score (no concentration beside the values); actives 0.23% (n = 140,000); AID 492967;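 active = z-score under -4 in either of two replicates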;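 also: stock transfer was 100 nL into about 40 µL; score is relative to mean and spread of the plate; one replicate is shown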
Numbers without * were called inactive; . = no result given. A portion of the library, so the mix of outcomes need not match the whole.

SMILES	AID504770	Ba CapD inh
O=C1c2cccc3cc([N+](=O)[O-])cc(c23)C(=O)N1CCc1ccccn1	.	-0.38
COc1ccccc1OCCC(=O)C(C#N)c1nc2ccccc2[nH]1 (centres undefined)	0	.
O=C1CSC(c2cn(-c3ccccc3)nc2-c2ccccc2)N1CCCl (centres undefined)	-0.6	-0.43
Nc1c2c3c(c(Cl)ccc3[nH]c1=O)C(=O)c1ccccc1-2	.	-0.12
O=S(=O)(c1ccc(F)cc1)n1nc(C(F)(F)F)c2cnccc21	0.5	3.8
O=C(OCCN1CCN(c2cc(C(F)(F)F)nc3c(Cl)cccc23)CC1)C1CC1	-0.2	0.22
CN1CCC(N(C(=O)c2ccc(C(C)(C)C)cc2)C2CC2)CC1	.	-0.29
O=C(C/C=N/OCc1ccc([N+](=O)[O-])cc1)c1cc(-c2ccccc2)no1	.	-0.91
O=C(COC(=O)Cc1c[nH]c2ccccc12)NCc1ccco1	-0.55	.
CCOc1cccc2cc(C(N)=O)c(=Nc3ccc(F)cc3)oc12	-0.5	0.61
CC1=C(C)CC2C(=O)N(c3ccc(N4CCOCC4)cc3)C(=O)C2C1 (centres undefined)	0.75	0.39
O=C(CCCOc1ccccc1)Nc1ccccc1	-0.55	.
COc1ccc(CC(=O)Nc2cccc(-c3ccc(S(C)(=O)=O)nn3)c2)cc1	-0.75	.
COC(=O)CCC(=O)Nc1nccs1	-0.4	0.33
CSc1nc(/C=C/c2ccc(C)cc2)cc(/C=C\c2ccc(C)cc2)c1C#N	.	0.34
CCCCn1c(-c2nn(C)cc2Cl)n[nH]c1=S	-0.95	0.15
Cc1oc(C(C)(C)C)cc1-c1cc(NC(=O)c2ccccc2)n(C)n1	-0.6	0.2
CC1CCN(S(=O)(=O)c2ccc3c(c2)c(=O)c(C(=O)N(C)Cc2ccccc2)cn3C)CC1	-0.55	-2.9
CCOc1cc(C2C(C#N)=C(N)Oc3n[nH]c(-c4ccc(OC)cc4)c32)ccc1OC(=O)c1ccco1 (centres undefined)	.	-0.81
O=C(NCCS(=O)(=O)NC1CCCCC1)c1ccccc1	1.1	.
CSc1ccc(NC(=O)NCc2ccccc2)cc1	0.55	1.2
CS(=O)(=O)Nc1cc(NS(C)(=O)=O)cc(C(=O)O)c1	-0.3	0.24
NC(=O)COC(=O)c1ccccc1Nc1ccccc1	-0.9	.
Cn1c(=O)c(=O)n(C)c2cc(S(=O)(=O)CCC(=O)Nc3cccnc3)ccc21	2.7	-0.1
COc1cc(/C=C2/NC(=S)NC2=O)cc(Br)c1OC(=O)C12CC3CC(CC(C3)C1)C2	.	-0.035

Later entries.
SMILES	AID504770	Ba CapD inh
COc1ccc(N2C(=O)CC(c3ccc([N+](=O)[O-])cc3)C3=C2CC(C)(C)CC3=O)cc1 (centres undefined)	.	-0.55
COc1ccccc1C(=O)NCc1ccc2c(c1)cc(C)n2C	-0.8	.
O=C(O)c1cccc(N(CCO)CCO)c1	-0.75	.
Cc1sc2nc(SCC(=O)NCCCn3ccnc3)[nH]c(=O)c2c1C	.	-0.24
COC(=O)Cc1nc(NS(=O)(=O)c2cccc(C(F)(F)F)c2)sc1C	.	-0.53
CCOC(=O)C1=C(c2ccccc2)OC(N)=C(C#N)C1c1cc2ccccc2nc1Cl (centres undefined)	.	0.6
Cc1csc(=O)n1CC(=O)NC1CCC(C)CC1 (centres undefined)	0.05	.
NNC(=O)CSc1ccc(Cl)cc1	-0.6	.
COc1ccc(-c2noc(=O)[nH]2)cc1	-1.4	-0.075
Cc1cc(/C=C/c2ccc(OCC(O)CNC(C)C)cc2)on1 (centres undefined)	0.25	1.3
O=C(O)CSCc1cnn(-c2ccccc2)c1-n1cccc1	-1.4	-0.22
Cc1ccc(S(=O)(=O)NCCNc2nccc(C(F)(F)F)n2)cc1	-0.7	12
Cc1cc(S(=O)(=O)Oc2ccc(OCc3ccccc3)cc2)c(C)cc1Cl	.	0.075
CS(=O)(=O)c1cc(C#N)c(N2CCNCC2)nc1-c1ccccc1C(F)(F)F	.	3.2
Cc1cc(C)cc(C(=O)N(CCc2ccccc2)C2=CC3CCC(C2)N3C)c1 (centres undefined)	.	0.13
COC(CNc1cccc(F)c1C#N)OC	.	43
O=S(=O)(Nc1ccccc1F)c1ccc2[nH]c3c(c2c1)CCCC3	1.9	-0.36
O=C(CCCn1c(SCC(=O)N2CCN(c3ccccc3)CC2)nc2ccccc2c1=O)NCc1ccco1	.	-0.1
FC(F)(F)c1cc(-c2noc(CN3CCOCC3)n2)cc(C(F)(F)F)c1	-0.45	0.6
CCOC(=O)C1=C(N)OC2=C(C(=O)CC(c3ccccc3)C2)C1c1ccc(OC)cc1OC (centres undefined)	.	-0.17
Cc1cc2c(cc1S(N)(=O)=O)S(=O)(=O)CCC2	.	-0.44
CCn1nnc(-c2cc(Cl)cc(Cl)c2)n1	-0.6	-0.045
COc1ccccc1NC(=O)Oc1ccc2ccncc2c1	1.2	.
CCc1ccc(N/C(SCc2cccc(F)c2)=C(/C#N)C(=O)NCc2ccco2)cc1	.	0.18
CCOC(=O)C1C(=O)CC(C)(O)C(C(=O)OCC)C1/C=C/c1ccccc1 (centres undefined)	0.35	0.07

The results go on.
SMILES	AID504770	Ba CapD inh
O=[N+]([O-])c1ccsc1Sc1ccc(C(F)(F)F)cn1	.	0.13
CCCOC(=O)c1cc(-c2ccc(/C=C3\C(=O)N(c4cccc(C(=O)O)c4)N=C3C)o2)ccc1Cl	.	-0.09
Cn1c(=O)c2c(-c3ccc(Br)cc3)n(Cc3ccco3)cc2n(C)c1=O	0.8	5
CN1CCN(c2cn[nH]c(=O)c2Cl)CC1	-0.45	-0.2
COc1ccc(C)cc1S(=O)(=O)N1CCN(c2ccc(C)cc2C)CC1	.	-0.7
Clc1ccccc1OCc1nnc(-c2ccccc2Cl)o1	-0.5	-0.47
Cc1ccc(C2C(=O)c3ccccc3C2=O)cc1	0.1	-0.99
c1ccc(-c2cc(-c3ccco3)c(-c3ccccc3)nn2)cc1	0.35	-0.4
COC(=O)c1sc2nc(-c3ccco3)cc(C(F)(F)F)c2c1N	-0.1	0.6
c1ccc(CCNc2nc(-c3ccccc3)no2)cc1	0.05	0.015
CCOC(=O)c1cnn(C(=O)c2cccc3ccccc23)c1N	0	-0.51
O=C(CSc1nnc(C2COc3ccccc3O2)n1-c1ccccc1)c1cccc([N+](=O)[O-])c1 (centres undefined)	.	-0.43
COC(=O)Cn1cnc2sc(C)c(S(=O)(=O)N3CC(C)CC(C)C3)c2c1=O (centres undefined)	.	0.55
O=S(=O)(c1ccc(-c2cc(C(F)(F)F)on2)s1)N1CCC(C(c2ccccc2)c2ccccc2)CC1	.	-0.09
Cc1ccc(CSc2nc(-c3ccccc3)c(-c3ccccc3)[nH]2)cc1	.	18
FC(F)(F)c1cccc(Nc2nnnn2C2CCCC2)c1	-0.1	.
O=S(=O)(c1ccccc1)c1nc(Cc2ccccc2)oc1N1CCOCC1	-0.6	-0.15
CCOc1cc(/C=c2\sc3nc4cc(C)c(C)cc4n3c2=O)ccc1OCc1ccc(F)cc1	.	0.68
Cc1ccc(C)c(NC(=O)C2CCCN(C(=O)c3cnn(-c4ccccc4)c3-n3cccc3)C2)c1 (centres undefined)	-0.1	3.5
CCN(CC)c1ccc2cc(C(N)=O)/c(=N\NC(=O)c3ccccc3)oc2c1	-0.65	-0.24
C=CCN1C(=O)NC(=O)/C(=C\c2ccc(O)c(O)c2)C1=O	0.9	-0.11
Cc1cc(-n2c(C)cc(C(=O)CSc3ccc(F)c(F)c3)c2C)no1	-0.35	.
NC1=NC(=O)/C(=C\c2ccc3c(c2)OCO3)S1	1.2	.
COc1ccc(C2=Nc3cccc4cccc(c34)N2)cc1	.	-0.98
COC(=O)C1C(=O)NC(SCc2cccc3ccccc23)=C(C#N)C1c1ccccc1C (centres undefined)	.	0.3

Copied from the list.
Result for O=C(CSc1nnc(C2COc3ccccc3O2)n1-c1ccccc1)c1cccc([N+](=O)[O-])c1 (centres undefined) in Ba CapD inh: -0.43
Result for Clc1ccccc1OCc1nnc(-c2ccccc2Cl)o1 in AID504770: -0.5
Result for NC1=NC(=O)/C(=C\c2ccc3c(c2)OCO3)S1 in AID504770: 1.2
Result for CCOc1cc(/C=c2\sc3nc4cc(C)c(C)cc4n3c2=O)ccc1OCc1ccc(F)cc1 in Ba CapD inh: 0.68
Result for c1ccc(-c2cc(-c3ccco3)c(-c3ccccc3)nn2)cc1 in AID504770: 0.35
Result for CCN(CC)c1ccc2cc(C(N)=O)/c(=N\NC(=O)c3ccccc3)oc2c1 in Ba CapD inh: -0.24
Result for COC(=O)c1sc2nc(-c3ccco3)cc(C(F)(F)F)c2c1N in Ba CapD inh: 0.6

Next results follow.
SMILES	AID504770	Ba CapD inh
Cc1ccc2oc(=O)c3cnn(CC(=O)Nc4ccccc4C)c3c2c1	0.3	-0.39
COC(=O)C1=C(CN2CCOCC2)NC(=O)NC1c1cccc(OC)c1 (centres undefined)	1.4	.
O=C(c1cnc(N2CCOCC2)nc1)N1CCN(c2ccc(F)cc2)CC1	1.2	0.52
COc1ccc(-c2nc(-c3ccc4c(c3)C(=O)c3ccccc3-4)c(-c3ccccc3)[nH]2)cc1OC	.	1.3
CC(NC(=O)c1ccc[nH]c1=O)c1ccc(Cl)cc1Cl (centres undefined)	1.4	.
CCC(CC)C(=O)Nc1c(-c2ccccc2)nc2cc(C)ccn12	-1.6	0.02
CN(C)C(=O)N1CCC(C(=O)NCCC2=CCCCC2)CC1	-0.25	0.49
COc1ccc(CNC(=O)C2=CC=CN3CCS(=O)(=O)N=C23)cc1	0.15	.
Cn1c(=O)n(CCOc2ccc(Cl)cc2)c2ccccc21	2.8	-0.14
C=CCn1c(C(C)NC(=O)c2ccccc2)nc2ccccc21 (centres undefined)	-0.75	0.035
CC1Cc2ccccc2N1C(=O)Cn1ncc(Cl)c(Cl)c1=O (centres undefined)	-0.8	.
Cc1cccc(Nc2nc3nonc3nc2N2CCC(C)CC2)c1	.	-0.67
CCOC(c1ccccc1)c1nc2ccccc2n1CC (centres undefined)	0.1	0.055
CN(Cc1c(F)cccc1Cl)C(=O)CN1CCN(c2ncccn2)CC1	0.25	.
CCN(CC)C1=NC(Cc2ccccc2)C(=O)N1c1ccccc1OC (centres undefined)	0.95	2.2
CC1(C)c2ssc(=S)c2-c2ccccc2N1C(=O)c1ccccc1Cl	.	0.32
CC(C)COc1ccc(C2Nc3ccccc3C(=O)N2c2ccc(Br)cc2)cc1 (centres undefined)	.	3.1
CCOc1ccc(NC(=O)C2CC(=O)N(CC)C(=Nc3ccc(OC)cc3)S2)cc1 (centres undefined)	.	-0.26
O=c1/c(=C/c2ccc(Cl)cc2Cl)sc2nnc(-c3ccccc3)n12	.	-0.15
c1ccc2c(c1)nc(NC1CC1)c1nncn12	-0.85	-1.3
CCOC(NC(=O)c1ccccc1)(C(F)(F)F)C(F)(F)F	-0.1	1.2
O=C(N/N=C/C1=C(N2CCOCC2)C(=C\c2ccccc2)/CC1)c1ccccc1	-1.2	.
Cc1ccc(C(=O)COC(=O)c2ccccc2N2C(=O)C3CC=CCC3C2=O)cc1[N+](=O)[O-] (centres undefined)	.	0.035
CCN(CC)S(=O)(=O)c1ccc(NC(=O)c2cc(-c3cccs3)nc3ccccc23)cc1	-0.7	-0.17
O=C1C2CC=C(Cl)CC2C(=O)N1CCN1CCN(CCN2C(=O)C3CC=C(Cl)CC3C2=O)CC1 (centres undefined)	.	-0.025

Further entries follow.
SMILES	AID504770	Ba CapD inh
Nc1c(C(=O)Nc2ccc(Cl)cc2)sc2nc3c(cc12)CCCCC3	.	1.5
O=C(O)CN1C(=O)c2cccnc2Sc2ccccc21	0.4	0.73
CCn1cc(Br)c(C(=O)NCc2ccco2)n1	0.7	0.085
Cc1c(C#N)c(O)[nH]c(=O)c1N=Nc1ccc(S(N)(=O)=O)cc1	0.4	-2.2
CN(C)c1ccc(CNCCCn2ccnc2)cc1	-1	.
CC(C)c1nc(=S)c2cc(Br)cc(Br)c2[nH]1	0.5	-0.32
CN(C(=O)C1CC(c2ccc(F)cc2)=NO1)C1CCCCC1 (centres undefined)	-0.7	-0.48
CC(C)N=c1scc(-c2cccs2)n1/N=C/c1ccc(O)c(O)c1O	1.1	.
O=c1cc(C(F)(F)F)nc(N2CCCC2)[nH]1	-0.65	0.34
O=C(CSc1nc2c(c(=O)n1-c1ccccc1)SCC2)NC1CCCCC1	2.4	-1.2
Nc1ccc2nc(SCC(=O)Nc3ccc4c(c3)oc3ccccc34)sc2c1	.	-0.44
Cc1ccc(OC(C)C(=O)Nc2ccc3c(c2)OCCO3)cc1 (centres undefined)	-0.6	.
O=C(O)Cc1nonc1NCNc1nonc1CC(=O)O	-0.1	0.28
CCCC(=O)N1CCN(c2nnc(-c3ccc(C)cc3)c3ccccc23)CC1	-0.25	-0.05
O=S(=O)(CCSc1nccc(-c2ccc(Cl)cc2)n1)c1ccc(Cl)cc1	-0.3	0.23
O=C(CSc1ncc(-c2ccccc2)n1CC1CCCO1)Nc1nccs1 (centres undefined)	-1	.

Some of the entries so far, with values under each structure:
Every second line gives: AID504770	Ba CapD inh
- COc1ccc(CC(=O)Nc2cccc(-c3ccc(S(C)(=O)=O)nn3)c2)cc1
    -0.75	.
- COC(=O)CCC(=O)Nc1nccs1
    -0.4	0.33
- CSc1nc(/C=C/c2ccc(C)cc2)cc(/C=C\c2ccc(C)cc2)c1C#N
    .	0.34
- CCCCn1c(-c2nn(C)cc2Cl)n[nH]c1=S
    -0.95	0.15
- Cc1oc(C(C)(C)C)cc1-c1cc(NC(=O)c2ccccc2)n(C)n1
    -0.6	0.2
- CC1CCN(S(=O)(=O)c2ccc3c(c2)c(=O)c(C(=O)N(C)Cc2ccccc2)cn3C)CC1
    -0.55	-2.9
- CCOc1cc(C2C(C#N)=C(N)Oc3n[nH]c(-c4ccc(OC)cc4)c32)ccc1OC(=O)c1ccco1 (centres undefined)
    .	-0.81

Bioassay records: PubChem BioAssay, ICCB-Longwood Screening Facility, Harvard Medical School
